Mtb betalactam: beta-lactam sensitization of Mtb H37Rv. M. tuberculosis H37Rv growth with meropenem, percent inhibition; hits of this screen are not shown here. inhibition, % at 25 µM. hit rate 0.27% among 330,000. AID 434955;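 active = about 74% or more and at least 40 points above the plate without the antibiotic, then above 30% in a dose series; inconclusive = first-round hits that could not be retested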;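 note: growth measured after seven days incubation then overnight dye step; 0% = bacteria only wells and 100% = bacteria with antibiotic; twin plates without the antibiotic show which effects depend on it; some results filed as inactive read as strong as hits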
Numbers without * were called inactive; ? = inconclusive.

SMILES	Mtb betalactam
C=CC[C@@H](CC(=O)N[C@H](CO)Cc1ccccc1)C(=O)N[C@@H](COC(=O)[C@H](CC=C)CC(=O)OC(C)(C)C)Cc1ccccc1	-3
COc1ccc(S(=O)(=O)N2CCN(C(=O)CCc3c[nH]c4ccccc34)CC2)cc1	-1
O=C(c1cc(S(=O)(=O)N2CCOCC2)ccc1Cl)N1CCC(Cc2ccccc2)CC1	-5
O=C(Cn1cnc2ccccc2c1=O)NCCCN1CCCC1=O	-5
CCCc1cc(=O)oc2cc(OCC(=O)N3CCC(C(=O)O)(c4ccccc4)CC3)ccc12	-6
O=C(CCc1ccccc1)Oc1ccccc1[N+](=O)[O-]	-5
CCCCn1nc(C(=O)NCC(c2cccs2)N2CCOCC2)c2ccccc2c1=O (centres undefined)	-10
CSc1ncccc1C(=O)OCC(=O)NCCCc1ccccc1	-12
O=C(COC(=O)CNC(=O)c1ccccc1Cl)Nc1cc(C(F)(F)F)ccc1Cl	8
COc1cccc(NC(=O)c2ccccc2Oc2ccccc2)c1	11
CCOc1ccc(C(=O)NCC(=O)N2CCCCCCC2)cc1	-9
CSc1ncccc1C(=O)OCC(=O)Nc1nc(C)c(Cl)cc1Cl	-4
O=C(Nc1cc(S(=O)(=O)N2CCOCC2)ccc1N1CCOCC1)c1ccccc1[N+](=O)[O-]	2
O=[N+]([O-])c1ccccc1S(=O)(=O)Nc1ccc(S(=O)(=O)N2CCCC2)cc1	0
C[C@H](CO)N1C[C@H](C)[C@@H](CN(C)S(=O)(=O)c2ccccc2)Oc2ccc(NS(=O)(=O)c3cn(C)cn3)cc2C1=O	-3
Cc1cccn2c(=O)cc(COC(=O)C(C)Oc3ccccc3)nc12 (centres undefined)	28
COc1ccc(S(=O)(=O)N(CC(=O)NC2CCCC2)c2ccccc2OC)cc1	?
CC[C@@H](C)[C@@H]1CN([C@@H](CN2CCC[C@H]2CN2C(N)=NC[C@H]2CC(C)C)C(C)C)C(=N)N1CCCC1CCCC1	92
CN(Cc1ccccc1)C(=O)c1[nH]cnc1C(=O)NCc1ccccc1	5
Cc1nc(C)c(C(=O)OCC(=O)NCCc2ccc(S(N)(=O)=O)cc2)s1	-8
Cc1cc(C)c(NC(=O)COC(=O)c2c(C)noc2C)c(Cl)c1	3
Oc1ccc(Cl)cc1	-1
Cc1ccc(C)c(OCc2cc(C(=O)N3CCc4sccc4C3)no2)c1	0
O=[N+]([O-])c1ccc(S(=O)(=O)NCCCc2ccccc2)cc1	8
O=C(OCC(=O)N1CCCCC1)c1cccs1	-6
O=C(N/C(=C/c1ccccc1Cl)C(=O)N1CCOCC1)c1ccccc1	0
C=CCn1c(SCC(=O)N(C)C2CCCCC2)nnc1C1CC1	-9
CN/C(=C\[N+](=O)[O-])NCCSCc1ccc(CN(C)C)o1	-8
Cc1ccc(S(=O)(=O)N2CCOCC2)cc1NC(=O)CN1C(=O)NC2(CCCC2)C1=O	-3
Cc1ccc(OCC(=O)NCCCNC(=O)c2ccco2)cc1	0
COC(=O)c1cc(Oc2ccc(S(=O)(=O)N3CCOCC3)cc2[N+](=O)[O-])cc(C(=O)OC)c1	6
O=C(NCCc1c[nH]c2ccccc12)c1ccc(Br)o1	-3
CCN(CC)CCCN=C1N[C@@H](c2cccc(C(F)(F)F)c2)C(C(=O)OC)=C(C)N1CC	1
CSCCC1NC(=O)N(CC(=O)Nc2ccc(-c3ccccc3)cc2)C1=O (centres undefined)	82
Cc1ccc(C(=O)Nc2ccccc2N2CCCC2)s1	9
O=C(CSc1nncn1-c1ccccc1F)NC1CCCCC1	-2
C=CCn1c2ccccc2c(=O)c2cc(C#Cc3ccccn3)ccc21	37
CC(=O)c1ccccc1NC(=O)CCN1C(=O)C2CCCCC2C1=O (centres undefined)	2
Cc1cc(C)c(C#N)c(N2CCN(C(=O)C3COc4ccccc4O3)CC2)n1 (centres undefined)	-5
Cc1ccc(NC(=O)Cn2nc(C(=O)O)c3ccccc3c2=O)cc1S(=O)(=O)N1CCOCC1	-2
C[C@@H](CSc1ccc(Br)cc1)CN1CC[C@H](C(C)(C)C)CCC1=O	2
COc1ccc(NC(=O)CN2CCN(c3c(C)cc(C)cc3C)CC2)cc1	79
C[C@H](CO)N1C[C@H](C)[C@@H](CN(C)C(=O)NC2CCCCC2)Oc2ccc(NC(=O)CCC(F)(F)F)cc2C1=O	8
COc1ccccc1N1CCN(CC(=O)Nc2ccc(S(=O)(=O)N3CCCCCC3)cc2)CC1	4
O=C(COC(=O)c1ccc2c(c1)OCCO2)NCc1ccccc1Cl	-3
CCCn1c(SCC(=O)N(C)CC(=O)Nc2ccc(Cl)cc2)n[nH]c1=O	-2
CNC(=O)CSc1nnc(-c2ccco2)n1-c1cccc(C)c1C	-4
Cc1ccc(S(=O)(=O)N(C)C)cc1NC(=O)CSc1nnc(C2CC2)n1C1CC1	-7
Cc1c(Cl)cccc1NC(=O)CNC(=O)C1CCN(C(=O)Nc2ccccc2)CC1	-1
Cc1ccc(C)c(NC(=O)CN(C)C(=O)c2ccccc2OCc2c(C)noc2C)c1	-1
Cc1ccc(NC(=O)c2c(C)noc2C)cc1S(=O)(=O)N1CCOCC1	-7
Cc1ccc(S(=O)(=O)N2CCCCC2)cc1NC(=O)CCNC(=O)c1ccccc1	2
O=C(CNC(=O)c1ccccc1F)OCC(=O)c1c[nH]c2ccccc12	3
COc1ccccc1NS(=O)(=O)c1cccc(NC(=O)C2CC2)c1	-4
C[C@]12c3[nH]c4ccccc4c3CCN1C(=O)C(CC(=O)NCCCn1ccnc1)C[C@@H]2C(=O)N1CCOCC1 (some centres undefined)	-4
O=Cc1c[nH]c2ccc(OCc3ccccc3)cc12	2
CC(OC(=O)/C=C/c1ccccc1)C(=O)Nc1ccc(C(N)=O)cc1 (centres undefined)	-4
C[C@H](CO)N1C[C@H](C)[C@@H](CN(C)C(=O)Nc2ccc3c(c2)OCO3)Oc2c(NC(=O)Cc3ccccc3)cccc2C1=O	-3
O=C(COC(=O)CSc1ccc(F)cc1)NC1CCCCCC1	7
Cc1ccc(C)c(NC(=O)[C@@H]2CCCN2S(=O)(=O)c2ccccc2F)c1	-3

Next section, overlapping the part above by 2 compounds.
SMILES	Mtb betalactam
O=C(COC(=O)CSc1ccc(F)cc1)NC1CCCCCC1	7
Cc1ccc(C)c(NC(=O)[C@@H]2CCCN2S(=O)(=O)c2ccccc2F)c1	-3
O=C(CSc1nc2ccccc2c(=O)n1-c1ccccc1F)NC1CC1	-9
O=C(NNC(=O)c1c(O)c2ccccc2[nH]c1=O)c1ccccc1	-6
Cc1ccc([N+](=O)[O-])cc1S(=O)(=O)Nc1cccc(S(=O)(=O)Nc2ccccc2C(=O)O)c1	5
Cc1ccc(NC(=O)CC(NC(=O)c2ccccc2Cl)c2ccccc2)nc1 (centres undefined)	4
COc1ccc(S(=O)(=O)N(CC(=O)NN=C2CCN(C)CC2)c2ccc(C)cc2)cc1OC	-4
Cc1cccc(C)c1NC(=O)CN(C)C(=O)c1ccccc1C(=O)N(C)Cc1ccccc1	-8
CN(CC(=O)Nc1cccc(F)c1)CC(=O)NC(c1ccccc1)c1ccccc1	-5
COc1ccc(C2c3[nH]c4ccccc4c3C[C@H]3C(=O)N(c4ccccc4C(=O)N4CCC[C@@H]4C(=O)O)C(=O)N23)cc1 (some centres undefined)	1
CCOc1ccc(C(=O)N(CC(=O)Nc2cccc(C)c2C)CC2CCCO2)cc1OC (centres undefined)	-3
CC(=O)c1ccc(S(=O)(=O)Nc2ccc(S(=O)(=O)N3CCCCC3)cc2)cc1	5
COc1ccc(C(CNC(=O)c2ccc(N3CCCC3=O)cc2)N2CCCC2)cc1 (centres undefined)	-5
Cc1ccc(C)c(S(=O)(=O)N2CCN(C(=O)c3n[nH]c(=O)c4ccccc34)CC2)c1	-6
CC1(NC(=O)CCc2ccccc2)CCN(CCCc2ccccc2)C1=O (centres undefined)	-10
COc1ccc(S(=O)(=O)N2CCOCC2)cc1C(=O)N(C)CCOc1ccc(Cl)cc1	2
NS(=O)(=O)c1cc(C(=O)OCC(=O)Nc2ccc3c(c2)OCO3)ccc1Cl	5
CC(C)(C)OC(=O)N1CCC(NC(=O)c2[nH]cnc2C(=O)Nc2ccccc2)CC1	98
COc1ccc(/C=C2\Oc3ccccc3C2=O)cc1	-1
O=C(CSc1nnc(-c2cccs2)n1C1CC1)NCC1CCCO1 (centres undefined)	-4
Cn1c(SCC(=O)NN2C(=O)NC(C)(c3ccccc3)C2=O)nnc1-c1ccncc1 (centres undefined)	-3
COc1ccc([C@@H]2CC=C(C(=O)O)[C@H](c3cccc(Cl)c3)N2S(=O)(=O)c2ccc(Cl)cc2)cc1	-3
O=C1C=C(c2ccc(F)nc2)C[C@@H](c2ccc3c(c2)OCO3)C1	3
O=C(Nc1ccc(Cl)cc1)c1nc[nH]c1C(=O)N1CCc2ccccc2C1	-2
CCCN(C(=O)COC(=O)CCOc1ccccc1)c1c(N)n(Cc2ccccc2)c(=O)[nH]c1=O	1
O=C1c2ccccc2/C(=C\C#Cc2ccccn2)N1c1ccccc1	16
O=C(COc1ccc(Cl)cc1Br)OCC(=O)c1ccc[nH]1	78
COc1cc(S(=O)(=O)Nc2ccccc2N2CCCCC2)ccc1NC(C)=O	-2
c1ccc(C[C@H]2CN=C(Nc3ccccc3)N2CC2CCC2)cc1	4
C#CCOCCOCCOCCNc1nc(N2CCN(C(=O)[C@H](CCCCN)n3cc(CN)nn3)CC2)nc(N2CCN(C(=O)[C@H](CO)n3cc([C@@H](N)C(C)C)nn3)CC2)n1	-1
COc1cc(C(=O)N2CCCCC2)ccc1OCC(=O)Nc1ccc(F)cc1	-2
CC(C(=O)NCC(=O)Nc1ccc(F)c(F)c1F)N1CCN(c2ccc(O)cc2)CC1 (centres undefined)	4

Two compounds drawn at random from the list so far, as already listed:
SMILES	Mtb betalactam
COc1ccc(S(=O)(=O)N(CC(=O)NN=C2CCN(C)CC2)c2ccc(C)cc2)cc1OC	-4
CN(CC(=O)Nc1cccc(F)c1)CC(=O)NC(c1ccccc1)c1ccccc1	-5

Six compounds already listed, sorted by formula weight, smallest number first:
SMILES	Mtb betalactam
c1ccc(C[C@H]2CN=C(Nc3ccccc3)N2CC2CCC2)cc1	4
COc1cc(C(=O)N2CCCCC2)ccc1OCC(=O)Nc1ccc(F)cc1	-2
Cc1ccc(C)c(S(=O)(=O)N2CCN(C(=O)c3n[nH]c(=O)c4ccccc34)CC2)c1	-6
Cn1c(SCC(=O)NN2C(=O)NC(C)(c3ccccc3)C2=O)nnc1-c1ccncc1 (centres undefined)	-3
COc1ccc(S(=O)(=O)N(CC(=O)NN=C2CCN(C)CC2)c2ccc(C)cc2)cc1OC	-4
C#CCOCCOCCOCCNc1nc(N2CCN(C(=O)[C@H](CCCCN)n3cc(CN)nn3)CC2)nc(N2CCN(C(=O)[C@H](CO)n3cc([C@@H](N)C(C)C)nn3)CC2)n1	-1

Later entries:
SMILES	Mtb betalactam
COc1cccc(CC(=O)Nc2cc(S(=O)(=O)N3CCOCC3)ccc2N2CCN(C)CC2)c1	-4
CN(C(=O)c1ccc(NC(=O)C2CCN(C(=O)OC(C)(C)C)CC2)cc1)C1CCC1	-1
COC(=O)c1ccc(/C=C/c2c(-c3ccc(OC)cc3)sc3ccccc23)cc1	38
Cc1cccc(NS(=O)(=O)c2nnc(NC(=O)c3ccc(C)c(C)c3)s2)c1	3
CCc1sc(C(=O)Nc2ccc(N3CCOCC3)cc2)cc1C	2
COc1ccc(CNC(=O)CCNS(=O)(=O)c2ccc(NC(C)=O)cc2)cc1OC	-3
CCCNC(=O)N1[C@H]2CC[C@@H]1C(C(=O)OC)=C(c1ccc(Cl)c(C(F)(F)F)c1)C2	6
O=C(N/N=C/c1ccsc1)c1ccc2c(c1)OCO2	-3
CCCN(C(=O)CSc1ncccn1)C1CCS(=O)(=O)C1 (centres undefined)	0
COc1ccc(NC(=O)N(C)C[C@H]2Oc3ccc(NC(=O)Cc4ccccc4)cc3C(=O)N([C@H](C)CO)C[C@@H]2C)cc1	2
CCOC(=O)[C@@H]1[C@H]2COc3cc(OC)ccc3[C@H]2N2C(=O)N(c3ccc(C)cc3)C(=O)[C@]12C	1
COc1ccc(S(=O)(=O)Nc2ccc3c(c2)C(=O)N([C@H](C)CO)C[C@H](C)[C@@H](CN(C)S(=O)(=O)c2c(C)noc2C)O3)cc1	2
Cc1nc2ccc(NC(=O)c3cccc(S(=O)(=O)N4CCOCC4)c3)cc2s1	-1
CN(C)S(=O)(=O)c1ccc(Cl)c(C(=O)OCC(=O)c2ccco2)c1	1
O=C(Nc1cccc(Cl)c1)c1nc[nH]c1C(=O)NCCN(CCNC(=O)c1[nH]cnc1C(=O)Nc1cccc(Cl)c1)CCNC(=O)c1[nH]cnc1C(=O)Nc1cccc(Cl)c1	4
CN(Cc1ccc(C(C)(C)C)cc1)C(=O)C1CSC2(C)CCC(=O)N12 (centres undefined)	9
CC1CCN(C(=O)CN2C(=O)NC(C)(c3ccc4ccccc4c3)C2=O)CC1 (centres undefined)	-2
Cc1ccc(-c2cc(C(F)(F)F)n3nc(C(=O)N4CCN5CCCC5C4)cc3n2)cc1 (centres undefined)	-3
Cc1coc2cc3oc(=O)c(CCC(=O)NCCCN4CCOCC4)c(C)c3cc12	-1
COc1ccc(S(=O)(=O)N2CCCCC2)cc1NC(=O)c1ccc(Cl)nc1	-9
CCCN(C(=O)c1ccc(-n2cncn2)c([N+](=O)[O-])c1)C1CCS(=O)(=O)C1 (centres undefined)	2

Assay outcomes as filed in PubChem BioAssay.

A portion of the library, so the mix of outcomes need not match the whole.
